HIV Env fusion = HIV envelope-mediated fusion inhibition; HeLa-JRFL Env/CEM21 cell fusion, luciferase; inhibition, % at 12.3 µM; 360,000 tested, 1.1% active;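 active = mean replicate inhibition score of at least 50 and every replicate individually at or above 50; inconclusive = only one of the two criteria met; inactive = mean below 50 and not all replicates reaching 50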;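 note: 0% = plate neutral controls and 100% = maraviroc near 300 nM; one replicate is shown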
CSC inhib = blocks cancer stem cells; AID 2717; cancer stem cell-like cells viability, luminescence; 300,000 tested, 1.1% active; inhibition, % at 7.5 µM;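 active = mean at 75% or more and at least half the replicates too; inconclusive = mean and replicates disagree; tested in HMLE shEcad cells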;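 note: 0% = median of negative and 100% = median of positive control wells; the first replicate is given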
MT1-MMP act inh = blocks activation of human MT1-MMP. P50281. HT1080 RFP-PRO-GFP cells, GFP/RFP ratio fluorescence, overnight; percent of plate control window, DMSO zero. GFP/RFP ratio change, % at 20 µM. 360,000 tested, 0.061% active. AID 651647;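 active = GFP/RFP ratio change of at least 30% with cell ATP level not reduced by more than half and red fluorescence within 50% of control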; note: strong numbers were not always called active
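Assay system: HT1080 RFP-PRO-GFP cells. Benchmarks: DMSO vehicle wells and RFP-L50D-GFP reporter cell wells. Times: overnight cell settling, then overnight compound exposure, 37 °C, 5% CO2. Compound: 20 µM single dose, 1% DMSO. Read-out basis: GFP/RFP fluorescence ratio.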
eIF4H FP inh = inhibitors of RNA binding by human eIF4H | Q15056 | AID 2012 | 290,000 tested, 0.94% active | eIF4H fluorescence polarization binding assay | inhibition, % at 35 µM;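 active = 50% or more with normal probe brightness, or confirmed in later tests; inconclusive = above 50% with abnormal brightness, or retests that disagree; inactive = below 50% or failed in later tests; about a fifth of its hits are not listed in these tables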;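 note: calls also rest on retests at 20 µM and on dose response follow-up; 0% = protein and probe with vehicle and 100% = probe without protein; strong numbers were not always called active; many hits fall short of the cut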
PABP polyA inh = PABP-poly(A) binding inhibition. 290,000 tested, 1% active. PABP-poly(A) RNA binding, fluorescence polarization. AID 2014. P11940. inhibition, % at 35 µM;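 active = 50% or more with normal probe brightness, or confirmed in later tests; inconclusive = above 50% with abnormal brightness, or retests that disagree; inactive = below 50% or failed in later tests; about a fifth of its hits are not listed in these tables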;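 note: calls also rest on retests at 20 µM and on dose response follow-up; controls were probe without protein and protein plus probe with vehicle; some compounds called inactive have numbers as strong as hits; many hits fall short of the cut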
Target sequence (P11940 whole entry, looked up): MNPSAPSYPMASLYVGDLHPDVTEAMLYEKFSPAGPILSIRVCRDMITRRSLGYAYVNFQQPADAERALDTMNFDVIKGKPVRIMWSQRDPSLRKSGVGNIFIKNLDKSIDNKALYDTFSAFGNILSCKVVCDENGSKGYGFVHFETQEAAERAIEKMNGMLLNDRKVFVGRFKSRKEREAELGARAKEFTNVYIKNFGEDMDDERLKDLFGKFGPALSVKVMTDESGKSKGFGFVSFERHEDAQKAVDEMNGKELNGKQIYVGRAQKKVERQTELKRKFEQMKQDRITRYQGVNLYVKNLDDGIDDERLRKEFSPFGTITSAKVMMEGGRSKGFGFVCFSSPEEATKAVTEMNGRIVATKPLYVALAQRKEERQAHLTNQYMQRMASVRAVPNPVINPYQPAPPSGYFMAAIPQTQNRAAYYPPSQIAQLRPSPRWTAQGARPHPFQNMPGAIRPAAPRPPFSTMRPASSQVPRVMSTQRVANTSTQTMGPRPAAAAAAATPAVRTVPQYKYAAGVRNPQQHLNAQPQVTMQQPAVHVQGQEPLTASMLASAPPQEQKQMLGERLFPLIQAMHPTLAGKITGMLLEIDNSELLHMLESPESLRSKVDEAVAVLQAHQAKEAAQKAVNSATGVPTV
Rce1 inhib = yeast Ras-converting enzyme inhibition | Q03530 | calls only | AID 2563 | yeast membranes, quenched prenylated peptide cleavage fluorescence | 290,000 tested, 0.27% active;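 active = fall in fluorescence gain of 50% or more versus controls, with final raw signal at or below 3038400; inconclusive = same 50% fall but final raw signal above 3038400; inactive = fall in fluorescence gain under 50%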;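 note: plate controls were neutral control wells for no effect and wells lacking membranes for full effect; tested at 10 µM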
Target sequence (Q03530 whole entry, looked up): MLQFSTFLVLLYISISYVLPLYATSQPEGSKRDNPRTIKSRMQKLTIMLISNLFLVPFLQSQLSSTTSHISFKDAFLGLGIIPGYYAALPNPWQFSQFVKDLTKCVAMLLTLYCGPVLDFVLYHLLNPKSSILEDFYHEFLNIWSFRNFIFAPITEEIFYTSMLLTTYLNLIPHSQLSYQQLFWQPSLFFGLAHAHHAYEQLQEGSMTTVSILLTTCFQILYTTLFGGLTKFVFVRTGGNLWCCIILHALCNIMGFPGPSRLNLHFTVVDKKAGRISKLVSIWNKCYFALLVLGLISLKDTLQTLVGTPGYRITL
UUG fidelity = modulators of start codon recognition fidelity in yeast; activity score, % at 18.7 µM; S. cerevisiae UUG-firefly luciferase reporter, luminescence/redox ratio; 350,000 tested, 0.13% active; AID 602363;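 active = replicate mean at a twofold rise or more, about +100% in these data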;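 note: firefly luciferase made from a UUG start codon reports start codon fidelity; reporter light over untreated wells divided by growth signal over untreated wells; some hits fall short of that in this replicate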
eIF4H FP inh retest = further read-out of eIF4H FP inh, marked with its call; inhibition, %; compound at 20 µM; confirmation average;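 mean of two retest wells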
PABP polyA inh retest = also measured in PABP polyA inh; calls as there; inhibition, %; compound at 20 µM; confirmation repeats;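 mean of two retest wells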
MT1-MMP act inh RFP = second read-out of MT1-MMP act inh, no call of its own (marks repeat the call); RFP signal change, %; measured here: RFP expression control read;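 0 = vehicle wells; hits needed this value within 50% of zero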
* = called active by the depositor; i = inactive; ? = inconclusive; nt = no result given. The list is partial; rates above refer to the full screens.

SMILES | HIV Env fusion | CSC inhib | MT1-MMP act inh | MT1-MMP act inh RFP | eIF4H FP inh | PABP polyA inh | Rce1 inhib | UUG fidelity | others
O=C(Nc1ccc(F)cc1)Nc1cc(S(=O)(=O)N2CCOCC2)ccc1N1CCCC1 | -6 | 23 | 0 | 1 | -3 | -9 | i | nt
O=C(OCc1ccccc1)N1CCC2CC1c1c(-c3ccc(C(F)(F)F)cc3)cccc12 (stereo not drawn) | -10 | nt | 3 | -3 | nt | nt | nt | -30
COc1ccc(C(c2nnnn2C(C)(C)C)N2CCN(C(=O)c3ccco3)CC2)cc1 (stereo not drawn) | -1 | -2 | -1 | 3 | 1 | 6 | i | -2
O=C(NCC1CCCO1)c1cc(-c2ccccc2F)no1 (stereo not drawn) | -3 | -12 | 3 | 5 | -18 | 0 | i | -21
CC(=O)NCc1c(Cl)cccc1-n1cccc1 | -60 | -7 | 1 | 6 | -4 | -1 | i | -13
COc1ccc(CNC(=O)c2noc(C(C)C)c2[N+](=O)[O-])cc1 | 19 | -4 | -2 | 2 | 0 | 6 | i | nt
Nc1nc(-c2ccc(Br)cc2)c(S(=O)(=O)c2ccccc2)s1 | 2 | 6 | 3 | -3 | -7 | -4 | i | -12
COC(=O)/C=c1/s/c(=C(\C#N)C(=O)NCc2ccco2)n(-c2ccc(C)cc2)c1=O | nt | nt | -33 | 5 | 101* | 90* | i | -17
Cc1c2cnn(CC(=O)NCc3ccccn3)c(=O)c2c(C)n1Cc1ccc(Cl)cc1 | -2 | -10 | 5 | 1 | 1 | 0 | i | -14
C#CCOCCOCCOCCNc1nc(N2CCN(C(=O)Cn3cc(CC(C)O)nn3)CC2)nc(N2CCN(C(=O)[C@H](CCCCN)n3cc(CC(C)O)nn3)CC2)n1 (stereo partly drawn) | -26 | nt | -1 | 3 | nt | nt | nt | 7
O=C(Nc1nccs1)c1cc(S(=O)(=O)N2CCOCC2)c(Cl)cc1Cl | -2 | -4 | -4 | -1 | 3 | 7 | i | nt
O=S1(=O)CCN2N=C(C34CC5CC(CC(C5)C3)C4)SC2=N1 | 19 | 6 | -1 | -2 | -11 | -5 | i | nt
CCc1noc(C)c1C(=O)N1CCN(S(=O)(=O)c2cccs2)CC1 | -9 | -9 | -3 | 5 | nt | nt | i | -8
CC1(C)CC(=O)C=C(c2cccnc2)C1 | 19 | -22 | 3 | 0 | nt | nt | i | 5
COc1ccc(NC(=O)C(c2ccccn2)N(C(C)=O)c2ccc(C)cc2)cc1 (stereo not drawn) | ? | 9 | 3 | 11 | 2 | -2 | i | -25
S=C(NCc1ccccc1)NNc1ccccc1 | -7 | -10 | -2 | 3 | -2 | 9 | i | nt
NS(=O)(=O)c1ccc(NC(=O)Cc2c(F)cccc2Cl)cc1 | 8 | -13 | -2 | 0 | -8 | 4 | i | nt
COc1ccc(CC(=O)Nc2cc(S(=O)(=O)N3CCCCC3)ccc2N2CCN(C)CC2)cc1 | nt | 25 | -2 | 1 | -1 | 6 | i | 15
CCCCC(=O)Nc1nc(C)c(-c2csc(Nc3cc(OC)ccc3OC)n2)s1 | -52 | 81* | -4 | -8 | 12 | 1 | i | -16
COCCCNc1nc2ccccc2[nH]c1=O | 17 | 0 | -4 | 2 | 2 | 4 | i | nt
COC(=O)c1c(-c2cccc(OC)c2)csc1N | -25 | 6 | 1 | -1 | -2 | -23 | i | -11
C=Cc1ccc(COC(=O)c2cn(CC)c3nc(C)ccc3c2=O)cc1 | -1 | -7 | -1 | 1 | -2 | 4 | i | -25
CCOC(=O)c1sc(NC(=O)C2CC(=O)N(c3ccc(OC)cc3)C2)nc1C (stereo not drawn) | 2 | -15 | -6 | -1 | -5 | 15 | i | -5
OCCCNc1nccc(-c2cc(Nc3cccc(Cl)c3)ncn2)n1 | 96* | -11 | -19 | -12 | -11 | -5 | i | -20
CC(=O)NC(c1ccc(F)c(F)c1)c1nc(-c2cccc(C(=O)O)c2)cs1 (stereo not drawn) | i | nt | -1 | 4 | nt | nt | nt | -30
CC[C@H](C)[C@H](NC(=O)CNC(=O)COc1cc2c(c3oc(=O)cc(C)c13)CCC(C)(C)O2)C(=O)O | 16 | -12 | 3 | 4 | 2 | 5 | ? | 21
CCOc1cccc2cc(C(C)=O)oc12 | -6 | -7 | 2 | 3 | 22 | -3 | i | -9
Clc1ccc(-c2nnc3n2CCCCS3)cc1 | 6 | -8 | -1 | 5 | 4 | 2 | i | -21
COc1ccc(/C=N/NC(=O)Cn2ccnc2C)cc1OC | -1 | 1 | 8 | 5 | 2 | -6 | i | -18
CC(=O)NCCn1c(SCC#N)nc2ccccc2c1=O | 0 | -2 | -3 | 2 | 0 | 3 | i | -26
COc1ccccc1CNC(=O)CN1CCN(Cc2ccc(Cl)cc2)C1=O | 21 | nt | 2 | 0 | nt | nt | i | -22
Oc1ccc(CCc2n[nH]c(=S)n2-c2ccc(F)cc2)cc1 | -6 | -20 | -1 | -1 | 7 | 8 | i | -21
N#Cc1cccc(NC(=O)c2ccc(S(=O)(=O)N3CCOCC3)cc2)c1 | nt | -23 | 0 | 1 | nt | nt | nt | -13
COc1cc(C2C(C#N)=C(N)Oc3n[nH]c(-c4cccnc4)c32)cc(Br)c1O (stereo not drawn) | 4 | -18 | -17 | -1 | -10 | 31 | i | -17
CN(C(=O)c1ccc(NC(=O)C2CCN(C(=O)OC(C)(C)C)CC2)cc1)C1CC1 | -15 | nt | 4 | -1 | nt | nt | nt | 3
COC(=O)c1ccc(NS(=O)(=O)c2cccc3cccnc23)cc1 | -11 | -5 | 5 | -2 | 4 | -3 | i | -4
Cc1ccc(OC(=O)c2cccc(S(=O)(=O)N3CCCC3)c2)c(-n2nc3ccccc3n2)c1 | -67 | 5 | -2 | 4 | 2 | -4 | i | nt
COc1cccc(Nc2c([N+](=O)[O-])cncc2[N+](=O)[O-])c1 | 4 | -7 | 6 | 0 | -4 | 2 | i | -18
CN(C)CCOc1ccc(Cl)cc1C(C)(C)C | 5 | -5 | 2 | 5 | 7 | 0 | i | 1
O=C(COc1ccccc1F)OCC(=O)N1CCc2ccccc21 | 3 | nt | 0 | 4 | nt | nt | nt | -8
CS(=O)(=O)N1CCN(C(=O)c2ccccc2F)CC1 | 5 | 1 | -1 | -1 | -7 | 2 | nt | -11
O=C(Cn1nc(-c2ccccc2)c2ccccc2c1=O)Nc1cccnc1 | -22 | -6 | 1 | 0 | 4 | -9 | i | nt
CCCC[C@@H]1CNC(=O)C(=O)N1CC(C)(C)C | 20 | 3 | 2 | 5 | -6 | -9 | i | -4
CCOC(=O)c1cnc(COc2ccccc2Cl)[nH]c1=O | -9 | -20 | 0 | 0 | 14 | 3 | i | -4
CC[C@]12c3[nH]c4cc(CCC(=O)N(C)C)ccc4c3CCN1C(=O)[C@@H](CC(=O)NCCC1=CCCCC1)C[C@@H]2C(=O)N1CCN(C(=O)C2CC2)CC1 | 2 | nt | 1 | 3 | nt | nt | nt | 4
CCc1ccc(N2CSC3=C(C#N)C(c4cccs4)CC(=O)N3C2)cc1 (stereo not drawn) | nt | 8 | -10 | -7 | 48 | 66 | i | -19 | eIF4H FP inh retest=-6;PABP polyA inh retest=4
CC(C)NC(=O)CSc1ccccc1C(=O)N1CCN(S(=O)(=O)/C=C/c2ccccc2)CC1 | -2 | -4 | 0 | -1 | nt | nt | nt | 6
CCCC(C(=O)NC1CCCC1)N(Cc1ccc(OC)cc1)C(=O)c1snc(C(N)=O)c1N (stereo not drawn) | 0 | nt | 4 | -3 | -8 | -5 | i | 0
CC(=O)NC(CCS(C)(=O)=O)C(=O)Nc1ccc(C)c(F)c1 (stereo not drawn) | nt | 9 | 1 | -1 | -3 | 9 | i | -4
N/N=C/C(=N\Nc1ccc(Cl)cc1)C(=O)c1ccncc1 | 9 | 76* | 7 | -4 | -10 | 10 | i | -34
COc1ccc(CCNC(=O)c2ccc3c(c2)NC(=O)C(C(C)C)N3)cc1OC (stereo not drawn) | 12 | 2 | 3 | 6 | 3 | 18 | i | 8
O=C(COc1ccc(Cl)cc1)NN=C1CCCCCCC1 | 11 | -11 | 1 | -1 | 4 | 2 | nt | -15
Cc1ccc([N+](=O)[O-])cc1NCC(=O)NN | -1 | -9 | 3 | 3 | 1 | 9 | i | nt
O=C(COC(=O)c1cc(Cl)nc(Cl)c1)NCc1ccc2c(c1)OCO2 | nt | 0 | 0 | 3 | nt | nt | nt | -20
CC(NC(=O)C(=O)N1CCCCC1)C(c1cccs1)N1CCN(c2ccc(F)cc2)CC1 (stereo not drawn) | 6 | -4 | 0 | 1 | 7 | -10 | i | 0
CC(=O)C12C3C4C(C5C1C3C5(Br)C41OCCO1)C21OCCO1 (stereo not drawn) | -2 | nt | -3 | 2 | 1 | -3 | i | -14
CN(C)C(=O)c1cc(C(=O)c2ccc(F)cc2Cl)c[nH]1 | 0 | nt | -4 | -4 | 8 | -6 | i | 0
COc1cc(OC)c(C=CC(=O)c2ccccc2O)c(OC)c1 | ? | nt | 1 | -9 | nt | nt | nt | -24
O=C(Nc1cc(C(F)(F)F)ccc1F)C1Cc2c(-c3ccccc3Oc3ccccc3)ccnc2O1 (stereo not drawn) | 79* | nt | 2 | -21 | nt | nt | nt | 1
COC(=O)CSc1nc2ncc(Cl)cc2[nH]1 | nt | 3 | 0 | 3 | 3 | 17 | i | -14
Additional records
SMILES | HIV Env fusion | CSC inhib | MT1-MMP act inh | MT1-MMP act inh RFP | eIF4H FP inh | PABP polyA inh | Rce1 inhib | UUG fidelity | others
Cc1ccc(NCN2C(=O)C3CC=C(Cl)CC3C2=O)cc1 (stereo not drawn) | nt | -14 | 7 | 9 | -1 | 2 | nt | nt
Cc1cccc(Nc2nnc(SCc3cc(=O)n4cc(C)ccc4n3)s2)c1 | -8 | 23 | 2 | -1 | -3 | 34 | i | -7
O=C(O)C1C2C=CC(C2)C1C(=O)OC1CC2CCC1C2 (stereo not drawn) | nt | -3 | 1 | 1 | 6 | -6 | i | 8
O=C(C[C@H]1C[C@H](C(=O)N2CCCCC2)[C@@]2(CCc3ccccc3)c3[nH]c4cc(-c5ccco5)ccc4c3CCN2C1=O)NCc1ccco1 | 8 | nt | -21 | -18 | nt | nt | nt | -16
CC(C)c1nnc(NC(=O)CCC(=O)NCc2ccc(F)cc2)s1 | -4 | -16 | 5 | 6 | -17 | 0 | i | -23
CC1(C)CC(=O)C2=C(C1)N1C(=C(C#N)C2c2ccccc2Cl)N=C(N)c2ccccc21 (stereo not drawn) | -1 | 1 | -18 | -5 | ? | -6 | i | -13
O=C(COC(=O)c1cccc2ccccc12)NCC1CCCO1 (stereo not drawn) | -5 | 8 | 1 | 1 | 2 | 29 | i | nt
O=C(Nc1ccc(-c2cc3ccccc3oc2=O)c(Cl)c1)c1cccnc1 | nt | 5 | 9 | 5 | -19 | -10 | i | -20
N#Cc1c(N)nc2c(c1-c1ccccc1)CCC2 | 33 | 0 | -5 | -1 | 29 | 12 | nt | nt
COc1ccc2cc3cc(C(=O)Nc4ccc5c(c4)OCCO5)oc3nc2c1 | -91 | 44 | 7 | -2 | -13 | 1 | i | -22
